# gsp agonist – agonists of gsp mutant (McCune-Albright syndrome) | gsp mutant cells, cAMP HTRF, 30 min; control for the full effect not named in the record | Potency, µM (series often up to 76.9 µM), for the others: at the highest dose activation (cAMP increase), most hits filed as activators | actives 0.13% (n = 340,000); active = well fitted activation curve with a large enough effect; inconclusive = small, poorly fitted or top-dose-only effect, or another doubt; inactive = no such curve, though single readings can be large or run the other way; cell line not stated here;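 further: phosphodiesterase inhibitor Ro 20-1724 added with compounds to block cAMP breakdown; potency means the concentration at half of the fitted maximal effect; nearly all actives have a fitted effect of over 60% in size; about a fifth of the inactives were tested at one dose only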
#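 Cells in DMEM/10% FBS with G418 were pretreated with compounds in DMSO plus […] (300 uM stock) for 30 min at 37C. cAMP was measured by HTRF (cAMP-d2 plus anti-cAMP antibody-K) after 30 min at room temperature.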
# TRPV1 potentiator – enhances activation of the human vanilloid receptor TRPV1; Q8NER1; TRPV1-expressing cells, Fluo-8 calcium influx, capsaicin EC20 potentiation; host cell line not named in the record; control for the full effect not named in the record; potentiation, % at 8.33 µM; actives 0.02% (n = 320,000); AID 540277; active means potentiation above 80%; inconclusive means 30% to 80%; inactive means below 30%; further: 0% is about no effect
# Target sequence (Q8NER1 whole entry, looked up): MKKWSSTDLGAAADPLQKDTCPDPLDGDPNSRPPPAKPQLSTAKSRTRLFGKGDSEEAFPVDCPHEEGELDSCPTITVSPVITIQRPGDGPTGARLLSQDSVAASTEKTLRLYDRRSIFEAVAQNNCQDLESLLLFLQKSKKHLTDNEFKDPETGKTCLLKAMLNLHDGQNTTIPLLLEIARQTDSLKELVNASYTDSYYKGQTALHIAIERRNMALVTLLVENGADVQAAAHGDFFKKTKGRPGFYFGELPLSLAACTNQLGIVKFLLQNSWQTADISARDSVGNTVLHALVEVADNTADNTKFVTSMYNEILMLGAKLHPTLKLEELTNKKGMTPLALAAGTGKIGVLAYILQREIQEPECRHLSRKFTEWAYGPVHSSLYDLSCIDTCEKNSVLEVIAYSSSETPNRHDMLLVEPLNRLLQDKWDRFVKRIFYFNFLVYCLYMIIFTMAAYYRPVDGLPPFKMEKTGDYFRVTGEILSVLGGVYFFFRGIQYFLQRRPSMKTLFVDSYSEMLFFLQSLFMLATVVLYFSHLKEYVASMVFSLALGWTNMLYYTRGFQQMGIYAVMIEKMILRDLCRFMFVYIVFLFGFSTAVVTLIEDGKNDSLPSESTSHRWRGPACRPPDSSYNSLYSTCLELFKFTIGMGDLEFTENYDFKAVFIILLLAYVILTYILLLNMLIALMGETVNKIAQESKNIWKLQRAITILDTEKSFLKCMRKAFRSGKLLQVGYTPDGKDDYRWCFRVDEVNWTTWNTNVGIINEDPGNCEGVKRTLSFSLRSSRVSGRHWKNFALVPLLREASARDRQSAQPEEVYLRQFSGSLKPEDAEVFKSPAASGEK
#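 Fluo-8 calcium influx in TRPV1-expressing cells, kinetic read (ex 480/em 520 nm). Compound added and read 3 min for agonist activity, followed by capsaicin at EC20 final and 2 min further read for enhancement.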
# ClpP mod – qHTS Assay for Activators of ClpP; ATP-dependent Clp protease proteolytic subunit (Bacillus subtilis (strain 168)), P80244; purified B. subtilis ClpP, FRET peptide cleavage, 20 min; Potency, µM (series often up to 57.5 µM), without a hit: at the top dose activity change, negative = active; actives 1.9% (n = 340,000); active = well fitted falling curve with a large enough effect; inconclusive = small, poorly fitted or top-dose-only effect; inactive = no such curve, though single readings can be large or run the other way; further: potency means the concentration at half of the fitted maximal effect; the source files actives as falling curves though it sought activators and does not explain the sign; nearly all actives have a fitted effect of over 65% in size; many hits overshoot -100%
# Target sequence (P80244 whole entry, looked up): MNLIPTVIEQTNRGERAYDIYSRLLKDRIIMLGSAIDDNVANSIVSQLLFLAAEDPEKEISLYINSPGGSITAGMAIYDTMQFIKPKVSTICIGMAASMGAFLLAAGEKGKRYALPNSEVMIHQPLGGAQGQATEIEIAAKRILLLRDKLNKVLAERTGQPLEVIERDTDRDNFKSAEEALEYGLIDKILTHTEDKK
#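 Buffer: 100 mM Tris/HCl pH8, 100 mM KCl, 0.05% low protease BSA, 2.5% glycerol, 0.01% Tween-20. ClpP 10 microg/mL final; 20 min RT; delta FRET normalized to ADEP and DMSO controls.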
# TRPML1 inh – blocks the human TRPML1 channel | Q9GZU1 | TRPML1-inducible cells, Ca2+ dye fluorescence, FDSS; stronger effect = lower value; inhibition of EC80 agonist-evoked calcium signal | activity change, negative = inhibition, % (no concentration beside the values) | actives 0.02% (n = 390,000) | AID 624415; in the data active means activity change below about -50%; inconclusive means about -30% to -50%; inactive means above about -30%;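 further: stimulus is agonist 54-4 at its EC80 concentration; on the % scale 0 is the no-effect control and ±100 the full control effect; compound concentration not given in the record; the text of the record puts the active cut at -80%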
#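 Tet-induced TRPML1-DL cells loaded with Ca8 no-wash calcium dye were read kinetically on FDSS. Compound addition was followed by EC80 agonist 54-4 (4 uM final); inhibition was read over 110 s.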
# Menin-MLL FL inh – inhibitors of human menin-MLL interaction, wild-type MLL peptide; Fluorescence polarization, fluorescein-MLL peptide displacement from menin; FP activity change, % at 61.4 µM; 290,000 tested, under 10 active; inconclusive = falling polarisation curve, or a change in total fluorescence; inactive = total fluorescence flat and polarisation flat or rising; no compound was filed as active; the % refers to the polarisation; negative = inhibition;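 further: % of control where 0% means no effect; inhibitors lower the polarisation; unlabelled MLL peptide was the positive control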
# Sfp PPTase inh – blocks B. subtilis Sfp PPTase activity; actives 3.5% (n = 310,000); Biochemical Sfp PPTase activity, qHTS; Potency, µM, inactives show max response, negative = inhibition, most hits filed as inhibitors; Q9F4F7; active means well fitted inhibition curve with a large enough effect; inconclusive means small, poorly fitted or top-dose-only effect, or another doubt; inactive means no such curve, though single readings can be large or run the other way;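 further: the enzyme is Sfp with the accession as filed and its product quenches rhodamine fluorescence; potency means the concentration at half of the fitted maximal effect; 0% = enzyme reaction without inhibitor and -100% = no enzyme wells; top concentration of the series not given in the record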
#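 Fluorescence-quenching assay with 15 nM Sfp, 5 uM rhodamine-CoA and 12.5 uM BHQ-2-labelled ybbR peptide in pH 7.6 Hepes/MgCl2 buffer. Enzyme was pre-incubated with compound for 15 min at room temperature. Rate was taken from the 30-min fluorescence change (525/598 nm).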
# gsp antag – gsp mutant antagonism; actives 0.4% (n = 340,000); AID 624288; gsp-mutant cells, cAMP HTRF, 30 min; control for the full effect not named in the record; Potency, µM (titrated, usually from 76.9 µM), without a hit: top-dose activity change, negative = inhibition, actives largely listed as inhibitors; active = falling curve of any shape with a large fitted effect; inconclusive = falling curve, mostly with a smaller effect; inactive = flat or rising curve; cell line not stated here;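 further: intracellular cAMP measured with PDE inhibitor Ro 20-1724 present during compound exposure; potency means the concentration at half of the fitted maximal effect; on the % scale 0 is the no-effect control and ±100 the full control effect; nearly all actives have a fitted effect of over 65% in size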
#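 Measurement of cellular cAMP by homogeneous time-resolved fluorescence following a 30 min compound exposure at 37C. The PDE inhibitor […] was present throughout; the assay buffer was DPBS with 0.05% BSA and 0.005% Tween 20.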
# Numbers without * were called inactive; ? = inconclusive; . = no result given; & = joins results of further samples; [ ] = another dose, or the depositor's remark.
SMILES,gsp agonist,TRPV1 potentiator,ClpP mod,TRPML1 inh,Menin-MLL FL inh,Sfp PPTase inh,gsp antag
C/C(CC(=O)Nc1ccc([N+](=O)[O-])cc1)=N/NC(=O)C1CC12CCC2 (stereo not given),-7%[15.4 µM],4,.,-3,-0.5,7%,.
COc1ccc(NC(=O)CN2C(=O)C(C)SC(C)C2=O)cc1 (stereo not given),8%,2,.,-12,-2.1,6%,13%
Cc1ccccc1Cn1c(=O)n(C)c(=O)c2sccc21,-3%[15.4 µM],-3,11%,3,0.8,14%,-10%
CC(NC(=O)C(Cc1ccccc1)N1C(=O)C2C3CCC(C3)C2C1=O)c1ccccc1 (stereo not given),-1%,-4,3.6%,-4,-0.6,-7%,-3%
Cc1cccc(C(=O)N[C@H](C(=O)OCC(=O)NC(=O)c2cccn2C)C(C)C)c1,?,7,.,7,3.7,9%,0%
C=CCn1c(SCC(=O)Nc2nnc(C)s2)nnc1-c1cccnc1,0%[15.4 µM],-7,.,-6,-3.2,-9%,7%
COc1ccc(-c2csc(N(CCCN(C)C)C(=O)c3ccc(C(C)(C)C)cc3)n2)cc1,0%[15.4 µM],-8,1.4%,38,-0.2,2%,5%
CNc1cc(=O)n(C)c(=O)n1-c1ccccc1,-5%,.,-1.6%,5,.,.,-4%
COc1ccc(Oc2ccc(/C=C/C(=O)c3ccc(O)cc3)cc2[N+](=O)[O-])cc1,5%,6,0.3%,16,2.6,-3%,-22%
CCOc1ccccc1C(=O)OCC(=O)Nc1ncc(C(F)(F)F)cc1Cl,-13%,22,-18%,2,3.3,6%,-28%
Cc1ccc(N(C(=O)c2snc(C(N)=O)c2N)C(CC(C)C)C(=O)NC2CCCC2)cc1 (stereo not given),-25%[15.4 µM],15,.,3,-3.0,4%,-8%
COc1ccc(N(C(=O)CNC(=O)c2ccco2)C(C(=O)NC2CCCC2)c2ccco2)cc1 (stereo not given),-3%[15.4 µM],-14,-4.8%,-8,-1.3,15%,3%
Cc1noc(C)c1COC(=O)c1ccc2c(c1)S(=O)(=O)c1ccccc1C2=O,-22%,-10,2.3%,2,-1.6,1%,6%
Cc1ccc(/C=C/C(=O)Nc2ccc([N+](=O)[O-])c(NC(=O)/C=C/c3ccc(C)o3)c2)o1,5%,-1,-2.8%,-24,5.3,18µM*,-8%
Cc1ccc(NC(=O)Cc2ccc(-n3cccc3)cc2)c(C)c1,-18%,-2,-0.2%,8,-0.2,-18%,-6%
Cc1cccc(NC(=O)CSc2nsc(SCC(=O)Nc3cccc(C)c3)c2C#N)c1,4%,21,0.5%,10,5.5,30%,-10%
COCCN1C(=O)c2oc3c(C)cc(C)cc3c(=O)c2C1c1cccc(O)c1 (stereo not given),12%,2,-3.0%,-11,-3.0,8%,1%
CCOc1cc(/C=C2/N=C(C)C(C(=O)OC)=C2O)ccc1O,?,5,0.3%,10,?,-4%,?
CC(=O)c1cccc(NC(=O)CCN2C(=O)C3CC=CCC3C2=O)c1 (stereo not given),-22%,-7,-1.9%,-6,.,.,3%
CCC(=O)c1ccc(OCC(=O)OCC(=O)Nc2c(C)n(C)n(-c3ccccc3)c2=O)cc1,46%,11,-0.9%,4,.,.,-17%
Cc1nnc(SCC(=O)NC2CCC(C)CC2)s1 (stereo not given),1%,-23,-26%,44,.,.,3%
O=C(NCC(=O)N1CCN(S(=O)(=O)c2ccccc2F)CC1)c1ccc(Br)o1,0%[15.4 µM],3,0.4%,-17,.,18%,-1%
COC(=O)CN1C(=O)C2(C(C#N)=C(N)Oc3ccccc32)C2=C1CC(C)(C)CC2=O (stereo not given),9%,-2,-2.0%,1,-1.1,14%,4%
CC1CCN(C(=O)CSc2nnc(Cc3cccn3C)n2-c2ccc(F)cc2)CC1,?,-15,7.9%,11,5.9,7%,-11%
Cc1ccc(NC(=O)CN2C(=O)CCSc3ccc(S(=O)(=O)N4CCCC4)cc32)cc1,20%,-11,1.2%&-1.0%,-20&-5,1.9,13%,-5%
Cc1cc(C(=O)Nc2ccc(Nc3ccccc3)cc2)ccc1[N+](=O)[O-],-2%[15.4 µM],0,0.3%,2,-0.8,20%,?
Clc1ccc(-c2nc(NCCN3CCOCC3)c3ccccc3n2)cc1,-22%,-2,-5.5%,10,2.8,15%,-8%
CCOC(=O)c1sc(=S)n(-c2ccc(OC)cc2)c1N,-4%[15.4 µM],9,.,8,-0.2,4%,1%
CC(C)[C@H](NC(=O)c1ccccc1)C(=O)Nc1ccc2c(c1)OCO2,7%,-5,-0.7%,-8,.,.,12%
CCN(CCNC(=O)C1CCN(Cc2nc(-c3cccc(Cl)c3)oc2C)CC1)c1ccccc1,-41%,-10,1.4%,55,2.8,?,5%
Cn1c(=O)c2c(nc(N3CCN(Cc4ccccc4)CC3)n2CC(=O)c2ccccc2)n(C)c1=O,-4%,.,0.2%,1,.,.,-6%
O=C(C1CCC1)N1CCN(c2ccccc2)CC1,-22%,-29,.,8,1.2,18%,5%
CCOc1ccc(-n2c(O)c(/C=N/c3ccnn3Cc3ccncc3)c3ccccc3c2=O)cc1,9%,10,-10%,-10,1.5,-10%,-14%
COc1ccc(S(=O)(=O)N2CCC(C(=O)N(CC(C)C)C3CCS(=O)(=O)C3)CC2)cc1OC (stereo not given),-14%[15.4 µM],17,.,-19,.,.,-8%
Cc1cc(Cl)ccc1NNC(N)=S,4%[15.4 µM],26,-1.1%,-1,3.8,50µM*,5%
S=c1[nH]nc(-c2ccco2)n1/N=C/c1c(Cl)cccc1Cl,-17%,-6,-0.4%,-3,3.3,-14%,3%
COC(=O)c1ccc(N(C(=O)CNC(=O)c2ccco2)C(C(=O)NC2CCCC2)c2ccco2)cc1 (stereo not given),-14%,-11,0.0%,16,0.7,4%,-1%
Cn1c(=O)c2c(SCC(=O)N3CCOCC3)nc(-c3ccccc3Cl)nc2n(C)c1=O,-8%,-8,-1.0%,6,.,-1%,-17%
CC(C)C(=O)Nc1ccc(Sc2ccc(F)cc2)cc1,?,-3,0.2%,1,4.5,9%,-6%
COc1ccccc1-n1nnnc1SCC(=O)NC1CC1,-10%[15.4 µM],-1,.,5,.,.,14%
CC1(C)CC(=O)C=C(c2ccc(COC(=O)c3ccccc3)cc2)C1=O,-46%[inhibitor],.,2.7%,2,.,.,.
O=C(Cn1c(=S)[nH]c2ccccc2c1=O)N1CCN(c2ccc(F)cc2)CC1,-9%[15.4 µM],6,.,7,-2.6,11%,-32%
COc1ccc(/C=C2\SC(=O)N(CC(=O)Nc3cccc(C)c3)C2=O)cc1O,3%,4,.,-8,-0.7,4%,-2%
COc1ccc(-c2noc(-c3ccccc3C(=O)NCc3ccco3)n2)cc1OC,3%,3,-3.3%,-7,0.5,-7%,-18%
COc1ccc(C(CC(=O)O)NC(=O)c2sc3ccccc3c2Cl)cc1 (stereo not given),27%[15.4 µM],4,.,-4,-0.3,0%,19%
CCC(Oc1ccccc1C)C(=O)Nc1ccc(S(=O)(=O)Nc2cc(C)on2)cc1 (stereo not given),-6%,7,.,-14,-6.1,32%[activator],-7%
COc1ccc(-c2csc3ncnc(N4CCN(c5ccccc5)CC4)c23)cc1,-5%[15.4 µM],-61,-1.0%,25,-1.1,16%,?
COc1cccc(C(=O)Oc2ccc3c(C)cc(=O)oc3c2C(C)=O)c1,10%[15.4 µM],17,-0.3%,20,2.1,-2%,9%
CCOc1ccc(NC(=O)CCc2ccc(C)o2)cc1,8%,-3,-1.1%,11,.,29%,12%
COc1cccc(N2CCN(C(=O)c3[nH]c(C)c(C(C)=O)c3C)CC2)c1,-37%[inhibitor],7,-1.2%,1,1.5,17%,-1%
COc1ccc(C(=O)NC(=S)Nc2nc(C)cc(C)n2)cc1Br,23%,-4,.,5,8.2,2%,3%
CC(C)CN(C(=O)COc1ccccc1C(=O)NCc1ccccc1)C1CCS(=O)(=O)C1 (stereo not given),15%,.,-1.6%,-5,.,.,.
C=CCNC(=O)Nc1cc(Cl)ccc1OC,18%,1,0.8%,-9,-3.0,14%,17%
CN1CCc2ccccc2Cc2[nH]c3ccccc3c2CC1,.,6,-2.9%,15,?,4%,0%
O=C(NCc1cccc(C(F)(F)F)c1)c1ccc[nH]1,14%,15,-0.9%,12,0.9,15%,20%
COc1ccc(/C=C/C(=O)Nc2ccc(-n3nncc3-c3ccc(OC)c(OC)c3)cc2)cc1OC,20%,9,25µM*,-19,6.8,4%,-3%

# Next part.
SMILES,gsp agonist,TRPV1 potentiator,ClpP mod,TRPML1 inh,Menin-MLL FL inh,Sfp PPTase inh,gsp antag
O=C(/C=C/c1ccc(OCc2cccc(Cl)c2)cc1)N1CCOCC1,?,-2,.,20,5.1,-7%,-33%
CCn1ncc(C2=NOC(C(=O)Nc3cccnc3)C2)c1C (stereo not given),-2%,-1,-6.2%,4,0.4,5%,5%
COC(=O)c1ccccc1NC1CC(=O)N(c2c(C)cccc2C)C1=O (stereo not given),-36%[inhibitor],-12,8.9µM*,2,5.5,28µM*,1%
Cc1ccccc1CNC(=O)C1CCC(=O)N(C2CCCCCC2)C1 (stereo not given),20%[15.4 µM],-8,-9.7%,23,0.5,12%,7%
O=C(Nc1cccc(Cl)c1)c1ccccc1,6%,-14,-4.6%,-4,.,.,3%
CCONC(=O)Nc1ccccc1,?,7,1.4%,43,-1.6,13%,2%
O=C(O)c1cc(N/N=C/c2cccs2)ccc1Cl,.,-25,.,.,6.1,2%,.
Cc1cc(C)c2c3c(sc2n1)C(=O)N(c1ccccc1C)CC(=O)N3,-2%[15.4 µM],7,.,27,0.0,16%,-5%
O=C(c1ccccc1)C1C(=O)c2ccccc2C1=O,-8%,10,0.9%,-7,1.9,21%,3%
